Compound activity: PubChem BioAssay, Broad Institute
DUX4 inh: inhibitors of DUX4-driven ZSCAN4 reporter expression, primary screen, 293T cells, Gaussia and Italica luciferase; activity change, negative = inhibition, % (concentration not given with the values); AID 1224904, 2016; 293T-iDUX4 ZSCAN4-Gaussia luciferase reporter, 24 h; hits give low values; actives 0.8% (n = 37,000);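 active means -10% or lower and over 25 points stronger than a control reporter; inconclusive means -10% or lower with a smaller gap; inactive means above -10%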;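 further: 0% = median of neutral control wells and -100% = median of positive control wells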
DUX4 inh difference: also measured in DUX4 inh; calls as there; Gaussia minus Italica difference, %; measured here: selective DUX4 reporter inhibition;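 worked out from the two reporters; negative = selective loss of the DUX4 reporter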
DUX4 inh control: also measured in DUX4 inh; calls as there; activity change, negative = inhibition, %; measured here: Italica tet-on control reporter;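 0 = neutral control and -100 = positive control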
Numbers without * were called inactive; ? = inconclusive; · = not tested or not shown. A portion of the library (hit frequency here may not be typical).

DUX4 inh,DUX4 inh difference,DUX4 inh control,canonical_smiles
?,·,·,C[C@H](CO)N1C[C@H](C)[C@H](CN(C)C(=O)Nc2cccc(Cl)c2Cl)OCc2ccccc2-c2c(n(C)c3ccccc23)C1=O
-2,0,-2.4,COc1cccc(-c2ccc3c(c2)[C@@H]2[C@@H](CCN2S(=O)(=O)C2=NC(C)C=N2)[C@@H](CO)N3C)c1 (stereo partly specified)
13,0,13,COCC(=O)N1[C@H](C#N)[C@H](c2ccccc2-c2ccccc2F)[C@@H]1CO
17,10,6.6,O=C(C[C@@H]1CC[C@H]2[C@@H](COC[C@H](O)CN2S(=O)(=O)c2ccccc2)O1)NCCN1CCCC1
5,6,-0.8,O=C([C@@H]1N[C@@H]2c3ccc(-c4ccccc4F)c(=O)n3C[C@@H]2[C@H]1CO)N1CCCCC1
1,0,1.7,CN(C)C(=O)C[C@@H]1CC[C@H]2[C@@H](COc3ccc(NC(=O)C4CCCCC4)cc3C(=O)N2C)O1
19,10,9.5,CC(C)(O)C#Cc1ccc([C@H]2[C@@H](CO)N3CCCCN(Cc4ccccc4F)C[C@@H]23)cc1
4,-7,12,CCCC(=O)Nc1ccc2c(c1)OC[C@H](C)N(S(=O)(=O)c1cn(C)cn1)C[C@H](C)[C@@H](OC)CN(C)C2=O
8,6,2.9,CS(=O)(=O)N1CC2(C1)[C@@H](c1ccccc1)[C@H](CO)N2Cc1ccccn1
-1,-1,0.9,CO[C@H]1CC[C@@H]2CCN(C)C(=O)CC3(CCCCC3)CN(C)C(=O)c3cc(C#N)ccc3OC[C@@H]1O2
2,-1,3.1,COCC(=O)Nc1ccc2c(c1)C(=O)N(C)[C@@H]1CC[C@@H](CC(=O)NCCc3ccccc3)O[C@@H]1CO2
-1,-2,1.0,C[C@@H]1CN([C@@H](C)CO)C(=O)CCCn2nncc2CO[C@H]1CN(C)Cc1ccc(O)cc1
1,-1,2.1,CNC[C@@H]1Oc2ccc(NC(=O)Nc3ccc(C(F)(F)F)cc3)cc2CC(=O)N([C@@H](C)CO)C[C@@H]1C
4,0,3.7,O=C(O)C[C@H]1C=C[C@@H](NC(=O)Nc2cc(F)ccc2F)[C@H](CO)O1
-2,8,-9.5,O=C(c1ccccn1)N1CC[C@H]2[C@H](CO)Nc3ccc(-c4cccc(F)c4)cc3[C@H]21
-1,5,-6.2,CCC(=O)N1[C@H](C(=O)Nc2nccs2)[C@@H](CO)[C@@H]2Cn3c(ccc(/C=C/c4ccccc4)c3=O)[C@@H]21
4,-5,8.9,COc1ccccc1C(=O)N1C[C@H]2[C@@H](c3ccccc31)[C@H](CO)N2C(=O)Cc1cccnc1
0,4,-4.4,CN(C)c1ccc2c(c1)[C@H]1C[C@H](CC(=O)NCc3ccc4c(c3)OCO4)O[C@H](CO)[C@H]1O2
10,11,-0.1,O=C(C[C@H]1C[C@H]2c3cc(NS(=O)(=O)c4ccc(F)cc4)ccc3O[C@H]2[C@@H](CO)O1)NCCN1CCCCC1
17,11,5.8,COc1cccc(NC(=O)N2CC3(C2)[C@H](c2ccccc2)[C@H](CO)N3C(C)=O)c1
0,1,-1.2,CCN(C[C@@H]1N[C@@H](CO)[C@H]1c1ccc(-c2cccc(C#N)c2)cc1)C(C)=O
-5,-9,3.9,CO[C@@H]1CN(C)C(=O)c2cc(NC(=O)C3CC3)ccc2OC[C@@H](C)N(C(=O)c2ccncc2)C[C@@H]1C
6,-6,12,CCNC(=O)C[C@@H]1CC[C@@H]2[C@H](COC[C@@H](O)CN2Cc2ccncc2)O1
1,1,0.5,C[C@@H]1CN([C@H](C)CO)C(=O)CCCn2nncc2CO[C@@H]1CN(C)S(=O)(=O)c1ccccc1C#N
1,0,1.5,C[C@H](CO)N1C[C@H](C)[C@H](CN(C)CC2CCCCC2)Oc2ccc(NC(=O)Cn3cnnn3)cc2CC1=O
21,17,4.7,COc1ccc2c3c(n(C)c2c1)[C@H](CO)N(CC1CCOCC1)CC31CCN(CC2CCOCC2)CC1
-3,-6,2.8,CCCC#Cc1cnc2c(c1)C(=O)N([C@@H](C)CO)C[C@H](C)[C@H](CN(C)Cc1ccc3c(c1)OCO3)O2
1,3,-1.3,O=C(c1cccc(F)c1)N1C[C@H]2[C@@H](c3ccccc31)[C@@H](CO)N2C(=O)Cc1ccccc1
21,8,13,CCCNC(=O)N1CC2(C1)CN(C(=O)CN1CCOCC1)[C@@H](CO)c1[nH]c3cc(OC)ccc3c12
0,-4,4.0,C[C@H](CO)N1C[C@H](C)[C@H](CN(C)C(=O)c2cc(-c3ccccc3)on2)OCc2cnnn2CCCC1=O
?,·,·,CC(C)CC#Cc1ccc([C@H]2[C@@H](CO)N3C(=O)CN(C(=O)c4ccc5c(c4)OCO5)C[C@H]23)cc1
1,-2,2.8,CO[C@H]1CN(C)C(=O)c2cc(NC(=O)Nc3cc(F)ccc3F)ccc2OC[C@@H](C)NC[C@@H]1C
-3,-2,-1.0,C[C@@H]1CNC(=O)[C@H](Cc2ccc(C(F)(F)F)cc2)CCn2nncc2COC1
7,5,1.1,C[C@@H](NC(=O)C[C@H]1CC[C@H]2[C@@H](COC[C@@H](O)CN2C)O1)c1ccccc1
3,2,1.7,CCCN(C)C[C@H]1Oc2cc(C#Cc3cccnc3)ccc2S(=O)(=O)N([C@H](C)CO)C[C@@H]1C
5,2,2.9,CO[C@H]1CN(C)C(=O)c2cc(NC(C)=O)ccc2OC[C@@H](C)N(C(=O)Cc2ccccn2)C[C@@H]1C
-7,-6,-1.0,C[C@H]1CN([C@@H](C)CO)C(=O)Cc2cc(NC(=O)C3CCCCC3)ccc2O[C@H]1CN(C)Cc1ccc(Cl)c(Cl)c1
1,1,0.0,O=C(C[C@@H]1CC[C@@H]2[C@H](COC[C@H](O)CN2Cc2nccs2)O1)NCc1ccccc1F
3,1,2.1,C[C@@H]1CN([C@@H](C)CO)C(=O)c2cc(NC(=O)CCC(F)(F)F)ccc2O[C@@H](C)CCCCO[C@H]1CN(C)C(=O)CCCN(C)C
3,2,0.2,CS(=O)(=O)N1C[C@H](O)COC[C@H]2O[C@@H](CC(=O)NCc3ccccc3)CC[C@@H]21
3,4,-1.0,CN1C(=O)c2cc(NC(=O)C3CCCC3)ccc2OC[C@H]2O[C@H](CC(=O)NCC(F)(F)F)CC[C@@H]21
2,-1,2.8,COc1ccc(-c2ccc([C@H]3[C@@H](CO)N(C(=O)C4CCC4)[C@H]3C#N)cc2)cc1
?,·,·,O=C(Nc1cccc(F)c1)N1CCCCN2[C@H](CO)[C@@H](c3ccc(C#Cc4cccnc4)cc3)[C@@H]2C1
3,5,-2.2,CN1c2ccc(C#Cc3cccnc3)cc2[C@@H]2[C@@H](CCN2C(=O)Cc2cccnc2)[C@@H]1CO
-2,-3,0.7,COc1ccccc1NC(=O)N1C[C@@H]2[C@H](c3ccccc31)[C@@H](CO)N2C(=O)c1ccccc1
2,-1,2.5,CC(C)NC(=O)N(C)C[C@H]1Oc2ccc(NS(=O)(=O)c3ccc(F)cc3)cc2CC(=O)N([C@@H](C)CO)C[C@H]1C
3,2,1.6,CCCNC(=O)C[C@@H]1CC[C@H]2[C@@H](COC[C@H](O)CN2CC2CCCCC2)O1
-3,-2,-1.9,C[C@@H]1CN([C@@H](C)CO)C(=O)c2cccc(NC(=O)C3CCOCC3)c2O[C@@H]1CN(C)C(=O)Nc1cccc2ccccc12
-2,-5,2.3,CCCNC(=O)Nc1ccc2c(c1)OC[C@H](C)N(C(=O)C1CCOCC1)C[C@@H](C)[C@@H](OC)CN(C)C2=O
1,1,0.1,CCCN1[C@@H]2c3ccc(C4=CCCC4)c(=O)n3C[C@@H]2[C@@H](CO)[C@@H]1C(=O)OC

Next part; it opens with the two that closed the last part.
DUX4 inh,DUX4 inh difference,DUX4 inh control,canonical_smiles
-2,-5,2.3,CCCNC(=O)Nc1ccc2c(c1)OC[C@H](C)N(C(=O)C1CCOCC1)C[C@@H](C)[C@@H](OC)CN(C)C2=O
1,1,0.1,CCCN1[C@@H]2c3ccc(C4=CCCC4)c(=O)n3C[C@@H]2[C@@H](CO)[C@@H]1C(=O)OC
8,18,-10,C[C@H](NC(=O)C[C@H]1CC[C@@H]2[C@H](COC[C@H](O)CN2C)O1)c1ccccc1
?,·,·,C[C@@H]1CN([C@H](C)CO)C(=O)CCCn2nncc2CO[C@@H]1CN(C)Cc1ccc(-c2ccccc2)cc1
0,-4,3.9,CCN(C[C@H]1[C@H](c2ccc(-c3cccnc3)cc2)[C@@H](CO)N1C(C)=O)C(C)=O
4,9,-4.9,CC=Cc1ccc2n(c1=O)C[C@@H]1[C@@H](CO)[C@H](C(=O)N3CCc4ccccc4C3)N(C(=O)C3CC3)[C@H]21 (mixture of isomers)
4,2,1.4,C[C@H]1CCCCO[C@@H](CN(C)C(=O)Nc2ccc3c(c2)OCO3)[C@@H](C)CN([C@@H](C)CO)C(=O)c2cc(NC(=O)Nc3ccc(C(F)(F)F)cc3)ccc2O1
-22*,-32*,9.8*,CC(C)CC#Cc1ccc([C@@H]2[C@H]3CN(S(=O)(=O)c4ccc(F)cc4)CCCCN3[C@H]2CO)cc1
0,2,-1.7,CC=Cc1ccc2n(c1=O)C[C@H]1[C@H](CO)[C@@H](C(=O)NCCOC)[C@@H]2N1Cc1ccccc1 (mixture of isomers)
-5,-18,13,COc1cccc(S(=O)(=O)N2CCCCN3[C@H](CO)[C@@H](c4ccc(C#CCC(C)C)cc4)[C@H]3C2)c1
-1,-3,2.3,C[C@H]1CCCCO[C@@H](CN(C)Cc2ccc(C(F)(F)F)cc2)[C@@H](C)CN([C@@H](C)CO)C(=O)c2cc(NC(=O)c3ccccc3)ccc2O1
0,0,0.2,COc1ccc(C[C@@H]2CCc3cnnn3COC[C@H](C(C)C)NC2=O)cc1
-5,-11,6.0,O=C(C1CCC1)N1CCCCN2[C@@H](CO)[C@H](c3ccc(-c4ccncc4)cc3)[C@@H]2C1
7,-1,8.3,O=C(C[C@@H]1CC[C@@H]2[C@H](COC[C@@H](O)CN2CCC(F)(F)F)O1)NCc1ccc2c(c1)OCO2
1,1,0.2,CC(C)[C@H]1COCc2cn(nn2)CCC[C@@H](C)C(=O)N1
3,-6,8.7,CCC(=O)N1CC(=O)N2[C@@H](CO)[C@H](c3ccc(C#CC(C)C)cc3)[C@@H]2C1
1,8,-6.8,COc1ccccc1-c1ccccc1[C@H]1[C@@H](CO)N(C(=O)C2CCC2)[C@H]1C#N
16,7,9.2,C[C@@H]1CN([C@@H](C)CO)C(=O)c2c(c3ccccc3n2C)-c2ccccc2CO[C@H]1CN(C)Cc1ccc(Cl)c(Cl)c1
-2,-1,-0.4,C[C@@H]1CN([C@H](C)CO)C(=O)c2cc(C3=CCCC3)cnc2O[C@@H]1CN(C)Cc1cccc(F)c1
0,3,-3.0,CN1C(=O)c2cc(NC(=O)c3cccs3)ccc2OC[C@H]2O[C@@H](CC(=O)NCC(F)(F)F)CC[C@H]21
-8,-7,-1.6,O=C(c1ccccn1)N1CC(=O)N2[C@H](CO)[C@@H](c3ccc(C#CC4CCCC4)cc3)[C@@H]2C1
-2,-4,2.0,CC=Cc1ccc2n(c1=O)C[C@H]1[C@H](CO)[C@@H](C(=O)NCc3ccncn3)N(C(=O)C3CCCC3)[C@@H]21 (mixture of isomers)
0,2,-2.2,C[C@@H]1CN([C@H](C)CO)S(=O)(=O)c2ccc(/C=C/c3ccccc3)cc2O[C@H]1CN(C)C(=O)Nc1cccc(F)c1
10,-2,12,N#C[C@@H]1[C@H](c2ccccc2-c2ccccc2F)[C@@H](CO)N1C(=O)c1cccc(F)c1
-4,1,-5.3,O=C(C[C@H]1CC[C@@H]2[C@H](COC[C@H](O)CN2CC2CCOCC2)O1)NCc1ccc(Cl)cc1

Part of the list above, set out differently:
Molecule,DUX4 inh,DUX4 inh difference,DUX4 inh control
CC(C)[C@H]1COCc2cn(nn2)CCC[C@@H](C)C(=O)N1,1,1,0.2
CCC(=O)N1CC(=O)N2[C@@H](CO)[C@H](c3ccc(C#CC(C)C)cc3)[C@@H]2C1,3,-6,8.7
COc1ccccc1-c1ccccc1[C@H]1[C@@H](CO)N(C(=O)C2CCC2)[C@H]1C#N,1,8,-6.8
C[C@@H]1CN([C@@H](C)CO)C(=O)c2c(c3ccccc3n2C)-c2ccccc2CO[C@H]1CN(C)Cc1ccc(Cl)c(Cl)c1,16,7,9.2
C[C@@H]1CN([C@H](C)CO)C(=O)c2cc(C3=CCCC3)cnc2O[C@@H]1CN(C)Cc1cccc(F)c1,-2,-1,-0.4
CN1C(=O)c2cc(NC(=O)c3cccs3)ccc2OC[C@H]2O[C@@H](CC(=O)NCC(F)(F)F)CC[C@H]21,0,3,-3.0
O=C(c1ccccn1)N1CC(=O)N2[C@H](CO)[C@@H](c3ccc(C#CC4CCCC4)cc3)[C@@H]2C1,-8,-7,-1.6
CC=Cc1ccc2n(c1=O)C[C@H]1[C@H](CO)[C@@H](C(=O)NCc3ccncn3)N(C(=O)C3CCCC3)[C@@H]21 (mixture of isomers),-2,-4,2.0
C[C@@H]1CN([C@H](C)CO)S(=O)(=O)c2ccc(/C=C/c3ccccc3)cc2O[C@H]1CN(C)C(=O)Nc1cccc(F)c1,0,2,-2.2
N#C[C@@H]1[C@H](c2ccccc2-c2ccccc2F)[C@@H](CO)N1C(=O)c1cccc(F)c1,10,-2,12
O=C(C[C@H]1CC[C@@H]2[C@H](COC[C@H](O)CN2CC2CCOCC2)O1)NCc1ccc(Cl)cc1,-4,1,-5.3
